# From PubChem
# PGK inhibitor – inhibitors of T. brucei phosphoglycerate kinase | P07378 | 380,000 tested, 0.043% active | PGK/GAPDH coupled, Kinase-Glo luminescence, 60 min | Potency, µM (doses to about 57.5 µM), for inactives: at the top dose activity change, negative = inhibition, actives largely listed as inhibitors; note: % is set by controls: 0 for no effect and ±100 for the full control effect; nearly all actives have a fitted effect of over 60% in size
#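 Recombinant glycosomal PGK reaction used 1,3-bisphosphoglycerate generated in-well by GAPDH (100nM final) in 100mM TEA pH 7.6, 5mM MgCl2, 0.01% Tween-20. After 60 minutes at room temperature, ATP was read by Kinase-Glo Plus luminescence end-point.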
# Apoferritin bind – binds horse apoferritin like a general anesthetic. 350,000 tested, 0.074% active. AID 485281. Potency, µM (highest dose often 77.5 µM), for inactives: at the top dose activity change, negative = displacement, usual class: inhibitors. apoferritin/1-aminoanthracene competitive binding, fluorescence; note: % is set by controls: 0 for no effect and ±100 for the full control effect; nearly all actives have a fitted effect of over 20% in size
#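 Steps: apoferritin (10 uM) was premixed with half-saturated 1-AMA in PBS, compounds were pin-transferred, plates stood 10 min at room temperature, fluorescence was read at 380/535 nm, and curves were fitted with a Hill equation.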
# POLI inh – inhibitors of human DNA polymerase iota | Q9UNA4 | Pol iota fluorescent replication assay, 10 min | Potency, µM (titrated, usually from 115 µM), for inactives: at the top dose activity, negative = inhibition, hits mostly inhibitors | 390,000 tested, 1% active | AID 588590
# Target sequence (Q9UNA4 whole entry, looked up): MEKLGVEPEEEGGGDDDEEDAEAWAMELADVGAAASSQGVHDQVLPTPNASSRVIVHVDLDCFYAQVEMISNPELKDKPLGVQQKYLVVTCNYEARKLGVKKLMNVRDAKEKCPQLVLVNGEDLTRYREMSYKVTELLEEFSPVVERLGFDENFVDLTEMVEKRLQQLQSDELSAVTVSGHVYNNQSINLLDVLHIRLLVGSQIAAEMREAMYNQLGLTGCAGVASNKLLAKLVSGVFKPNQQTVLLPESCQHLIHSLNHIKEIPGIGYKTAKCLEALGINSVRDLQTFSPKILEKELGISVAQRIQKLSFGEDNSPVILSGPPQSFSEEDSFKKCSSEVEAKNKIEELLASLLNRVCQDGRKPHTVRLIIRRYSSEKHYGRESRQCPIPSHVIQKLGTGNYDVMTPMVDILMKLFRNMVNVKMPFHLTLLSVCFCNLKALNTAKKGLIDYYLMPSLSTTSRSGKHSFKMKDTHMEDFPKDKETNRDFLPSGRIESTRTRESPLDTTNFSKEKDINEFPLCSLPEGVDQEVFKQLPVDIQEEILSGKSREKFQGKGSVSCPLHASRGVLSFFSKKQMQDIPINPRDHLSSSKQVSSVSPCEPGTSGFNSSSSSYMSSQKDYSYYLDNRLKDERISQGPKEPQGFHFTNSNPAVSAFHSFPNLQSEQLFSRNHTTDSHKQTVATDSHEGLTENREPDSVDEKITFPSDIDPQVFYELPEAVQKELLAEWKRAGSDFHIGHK
#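 Fluorescent replication assay read twice, at 0 min and 10 min after adding 50 nM (final) substrate. Enzyme (10 nM) and compounds were first incubated 15 min at room temperature; enzyme-free buffer wells were negative controls.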
# Pol beta inh – inhibitors of human DNA polymerase beta; Pol beta primer extension/strand displacement, fluorescence kinetic; Potency, µM (series often up to 114 µM), for inactives: top-dose activity change, negative = inhibition, most hits filed as inhibitors; 340,000 tested, 1.3% active; note: % is set by controls: 0 for no effect and ±100 for the full control effect
#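 Curves were derived by four-parameter Hill fits of normalized qHTS data. The kinetic fluorescent primer-extension read was taken at 0 and 10 min after 50 nM substrate, following a 15 min room-temperature preincubation of 10 nM enzyme with compounds.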
# POLK inh – DNA polymerase kappa (human) inhibition | Potency, µM (series often up to 107 µM), without a hit: at the highest dose activity, negative = inhibition, actives largely listed as inhibitors | Q9UBT6 | 400,000 tested, 0.53% active | AID 588579 | purified Pol kappa, fluorescent DNA synthesis assay, 10 min; note: % is set by controls: 0 for no effect and ±100 for the full control effect
#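 First, compounds were pin-transferred onto 10 nM Pol kappa. After 15 min at room temperature, substrate was added to 50 nM final. Fluorescence was then measured kinetically at 0 and 10 min.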
# Pol eta inh – inhibitors of human DNA polymerase eta; Q9Y253; recombinant Pol eta, fluorescent DNA replication assay; Potency, µM (series often up to 114 µM), without a hit: at the highest dose activity change, negative = inhibition, actives largely listed as inhibitors; 390,000 tested, 1.2% active; note: % is set by controls: 0 for no effect and ±100 for the full control effect
#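 Pol eta (10 nM) was preincubated with compounds for 15 min at room temperature, after which fluorescent replication substrate (50 nM final) was added to start the reaction. Fluorescence was read kinetically at 0 and 10 min.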
# APEX1 inh – APE1 (human) endonuclease inhibition; Potency, µM (titrated, usually from 65.8 µM), without a hit: at the top dose activity change, negative = inhibition, actives largely listed as inhibitors; 350,000 tested, 0.35% active; P27695; recombinant APE1, TAMRA/BHQ-2 abasic DNA cleavage fluorescence; AID 2517;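 note: plate controls were vehicle for no effect and reference inhibitor for full effect; nearly all actives have a fitted effect of over 55% in size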
# Target sequence (P27695 whole entry, looked up): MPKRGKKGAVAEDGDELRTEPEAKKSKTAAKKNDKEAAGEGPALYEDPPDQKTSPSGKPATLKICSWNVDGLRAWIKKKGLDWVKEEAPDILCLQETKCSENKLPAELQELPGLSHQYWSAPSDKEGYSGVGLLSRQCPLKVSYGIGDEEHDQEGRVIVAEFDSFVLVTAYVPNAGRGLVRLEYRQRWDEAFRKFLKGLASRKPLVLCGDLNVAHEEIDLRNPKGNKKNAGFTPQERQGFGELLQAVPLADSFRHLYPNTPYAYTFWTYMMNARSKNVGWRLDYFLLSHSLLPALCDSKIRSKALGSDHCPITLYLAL
#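 Measures dequenching upon AP-site incision of a 5'-TAMRA/3'-BHQ-2 THF-containing duplex, 50 nM; human APE1 0.75 nM after 15 min room-temperature exposure to compound; kinetic three-point read at one-minute spacing.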
# BLM helicase inh – Bloom syndrome helicase (human) inhibition; P54132; recombinant BLM DNA unwinding, fluorescence dequenching; Potency, µM (titrated, usually from 56.1 µM), inactives show top-dose activity change, negative = inhibition, actives largely listed as inhibitors; 350,000 tested, 0.2% active;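 note: plate controls were vehicle for no effect and no enzyme for full effect; nearly all actives have a fitted effect of over 35% in size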
# * hit, by the source's call; i = inactive; u = inconclusive; x = not tested or not shown; & = joins results of further samples; [ ] = dose if it differs, or a comment. Calls come from the whole dose curve; as a rule, active = well fitted curve in the direction sought with a large enough effect; inconclusive = small, poorly fitted or top-dose-only effect, or another doubt; inactive = no such curve, though single readings can be large; an effect the other way counts as inactive or inconclusive. Potency is the fitted concentration of half-maximal effect. Not all compounds are listed; the hit share may differ from the screen's.
entry	structure	PGK inhibitor	Apoferritin bind	POLI inh	Pol beta inh	POLK inh	Pol eta inh	APEX1 inh	BLM helicase inh
1	O=C(CSc1ncnc2c1oc1ccccc12)Nc1cccc(Cl)c1	5%	-20%	7%	u	0%	4%	3%	-1%
2	CCC(CC)NC(=O)COC(=O)c1ccc(NS(=O)(=O)c2ccc3c(c2)OCCO3)cc1	-7%	-17%	-2%	69%	-13%	-9%	18%	-6%
3	O=C(CSc1ncnc2c1oc1ccccc12)Nc1cccc(F)c1	-3%	-16%	1%	13%	-1%	4%	0%	0%
4	COC(=O)C1C(O)=C(C=Nc2cccc3ccccc23)C(=O)CC1(C)C (stereo not given)	-4%	-12%	-2%[58.9 µM]	3%	-15%	-9%	-3%	-7%
5	Cc1nc(SCCCSc2n[nH]c(C)n2)n[nH]1	-5%	-2%	0%	-9%	12%	-14%	-3%	-7%
6	CC(C)OC(=O)CCCN1C(=O)c2ccc(N)cc2C1=O	5%	59%[activator]	10%	38%	-11%	-20%	-3%	0%
7	CCOC(=O)c1ccc(NC(=O)C(CC)Sc2nnc3c4ccccc4n(C)c3n2)cc1 (stereo not given)	-4%	-18%	-8%	12%	3%	-11%	x	-2%
8	Cc1sc2ncn(CC(=O)NCCCC(=O)N3CCCCC3)c(=O)c2c1C	-3%	-14%	12%	25%	-12%	-4%	27%[12.4 µM]	-1%
9	Cc1ccc(CNC(=O)Cn2cc(C(=O)c3ccc(Cl)cc3)c(=O)c3ccc(C)nc32)cc1	i	-11%	-11%	-10%	2%	9%	x	-4%
10	CCC(C)(C)n1nnnc1C(c1ccc2ncccc2c1)N1CCN2CCCC2C1 (stereo not given)	x	-16%	15%	2%	-6%	10%	0%	-3%
11	CCc1cccc(NC(=O)c2cc3c(=O)n(Cc4ccc(OC)cc4)ccc3nc2C)c1	4%	u	52%[activator]	2%	18%	-23%	x	-6%
12	COc1ccccc1-n1c(-c2ccc(NS(C)(=O)=O)cc2)n[nH]c1=S	0%[11.5 µM]	-9%	-2%	41%	-4%	-4%	16%	-3%
13	Cc1cccc(Cn2c(=O)n(CCCC(=O)NCc3ccco3)c(=O)c3ccccc32)c1	-4%	-8%	10%	15%	-15%	-11%	0%	-4%
14	c1coc(Cn2nnnc2CN2CCN(C3CCCC3)CC2)c1	-5%	-5%	-12%	-1%	-3%	-1%	-7%	2%
15	COc1cccc(-n2c(=S)[nH]c3c(oc4ccccc43)c2=O)c1	i	-7%	30%	12%	-3%	-12%	-6%	4%
16	Cc1cc2c(cc3c(SCC(=O)Nc4cccc(Cl)c4C)nnc(C)n32)o1	0%	2%	17%	-1%	-4%	-8%	x	-13%
17	CCOC(=O)c1c(NC2=NS(=O)(=O)c3ccccc32)sc2c1CCC(C)C2 (stereo not given)	-3%	35%[activator]	1%	-27%	-19%	-7%	3%	-1%
18	CCCCNC(=O)CCC(=O)Nc1ncc(-c2ccc(C)cc2)n1C	5%	-12%	27%	16%	-11%	-18%	0%	1%
19	COc1cc([N+](=O)[O-])c(OC)cc1SCc1n[nH]c(=S)n1-c1ccc(F)cc1	-4%	8%	4%	13%	6%	-16%	-1%	-11%
20	CC(NC(=O)c1cc(-c2ccccc2)on1)c1ccccc1 (stereo not given)	-6%	17%	6%	-5%	-6%	-7%	-5%	-5%
21	Cc1sc2ncn(CC(=O)NCCCC(=O)N3CCN(c4ccccn4)CC3)c(=O)c2c1C	-5%	-12%	-5%	22%	-2%	-9%	-1%	0%
22	CC(Oc1ccccc1)C(=O)Nc1ccc(NC(=O)c2ccccc2)cc1 (stereo not given)	0%	2%	17%	13%	-15%	-3%	5%	-3%
23	CCc1ccccc1NC(=O)CN1CCC(NC(=O)COC)CC1	1%	-8%	0%	17%	2%	-13%	0%	-1%
24	CCc1ccc(CNC(=O)C2CCN(C(=O)c3ccc(-n4c(C)cc5ccccc54)s3)CC2)cc1	i	8%	-3%	6%	12%	-16%	x	-12%
25	CC(C)c1ccc(NC(=O)Cn2cc(S(=O)(=O)Cc3ccccc3Cl)c3ccccc32)cc1	5%	-8%	-23%	7%	-7%	-7%	x	-6%
26	CCOC(=O)c1cnc(C(C)(C)C)[nH]c1=O	-3%	-3%	14%	4%	-5%	2%	19%	3%
27	Cc1nnc(N2C(=O)C(=O)/C(=C(/O)c3ccc4c(c3)OCCO4)C2c2ccc(F)cc2)s1 (stereo not given)	-3%	5%	24%	30%	17%	-7%	18%	-3%
28	O=C1C(=O)N(c2nccs2)C(c2ccccc2F)/C1=C(\O)c1ccc2c(c1)OCCO2 (stereo not given)	-1%	-8%	12%	28%	-18%	-12%	6%	-4%
29	CCCCN(CCCC)C(=O)c1sc2nc(N3CCOCC3)c3c(c2c1N)CCCC3	-10%	-11%	u	32%	-7%	3%	2%	-3%
30	N#Cc1c(C(F)(F)F)cc(-c2ccc(F)cc2)nc1SCC(=O)Nc1ccccc1	7%	69%[activator]	41%[activator]	4%	6%	-13%	x	-2%
31	CCCC(=O)Nc1cc(-c2nnc3c4ccccc4c(C)nn23)ccc1C	i	7%	-6%	19%	-10%	-5%	x	-3%
32	Cc1ccc(C(=O)OCc2cc(=O)n3c(C)csc3n2)s1	-9%	x	-19%	x	-1%	-5%	9%	x
33	Cc1csc2nc(COC(=O)CNC(=O)c3ccc(F)cc3)cc(=O)n12	0%	-9%	19%	7%	0%	-9%	x	1%
34	CCc1cccc(C)c1NC(=O)CSc1nnc(CC)n2c1cc1occc12	-5%	u	23%	-18%	-10%	-20%	x	2%
35	O=C(c1ccco1)N1CCN(c2ncnc3sc4c(c23)CCC4)CC1	-3%	-18%	u	u	u	u	6%	-11%
36	CC(=O)Nc1ccc(N(C(=O)c2cnccn2)C(C(=O)NC2CCCCC2)c2ccc(O)cc2)cc1 (stereo not given)	-11%	-19%	11%	1%	-2%[60.1 µM]	11%	2%	-3%
37	Cc1cccc(C)c1Nc1nnc(SCC(=O)Nc2sccc2C#N)s1	0%	u	u	-26%	u	u	u	-22%
38	CNS(=O)(=O)c1ccc(OC)c(-c2nnc3c4ccccc4c(C)nn23)c1	-6%&5%	-12%&-13%	12%&27%	-18%&18%	-4%&-1%	-12%&-4%	-3%	1%&1%
39	Cn1c(=O)c2c(SCC(=O)NCC3CCCO3)nc(-c3ccccc3F)nc2n(C)c1=O (stereo not given)	-4%	1%	12%	36%	1%[60.1 µM]	5%	x	5%
40	Cc1onc(-c2ccccc2Cl)c1C(=O)NC(=S)NCC(=O)c1ccccc1	-2%	-9%	1%	-5%	-13%	-7%	-10%	1%
41	Cc1cccc(C(=O)Nc2ccc(OCc3cc(=O)n4ccc(C)cc4n3)cc2)c1	2%	51%[activator]	-4%	8%	-14%[60.1 µM]	-9%	x	-3%
42	COc1ccc(OC)c(CNC(=O)c2ccc(N3Cc4ccccc4Oc4ncccc43)s2)c1	-6%	149%[activator]	0%	0%	-3%	-14%	x	-1%
43	Cc1nc2ccn(Cc3cccnc3)c(=O)c2cc1C(=O)Nc1ccc(F)cc1F	-12%	10%	17%	24%	0%	-9%	x	-2%
44	O=c1cc(CN2CCN(c3ccccc3)CC2)c2c(ccc3ccccc32)o1	i	-14%	20%	-2%	-8%	-18%	0%	0%
45	COc1cccc(C2C(C(=O)c3cc4ccccc4o3)=C(O)C(=O)N2CCN2CCOCC2)c1 (stereo not given)	-5%	-15%	33%[activator]	10%	-21%	-2%	10%	1%
46	Cn1c(N)c(C(=O)CSc2nc3ccccc3c(=O)n2Cc2ccccc2)c(=O)n(C)c1=O	0%	0%	u	-17%	-18%	-13%	2%	-7%
47	Cc1nc(Oc2ccccc2C)c2oc3ccccc3c2n1	-2%	-14%	18%	2%	-6%[60.1 µM]	-17%	x	-3%
48	Cn1c(=O)c2c(nc(-n3ccnc3)n2Cc2ccc(Cl)cc2Cl)n(C)c1=O	x	-16%	u	u	-2%	-9%	-1%	1%

# Brought forward from above: 3 entries; new compounds follow.
entry	structure	PGK inhibitor	Apoferritin bind	POLI inh	Pol beta inh	POLK inh	Pol eta inh	APEX1 inh	BLM helicase inh
46	Cn1c(N)c(C(=O)CSc2nc3ccccc3c(=O)n2Cc2ccccc2)c(=O)n(C)c1=O	0%	0%	u	-17%	-18%	-13%	2%	-7%
47	Cc1nc(Oc2ccccc2C)c2oc3ccccc3c2n1	-2%	-14%	18%	2%	-6%[60.1 µM]	-17%	x	-3%
48	Cn1c(=O)c2c(nc(-n3ccnc3)n2Cc2ccc(Cl)cc2Cl)n(C)c1=O	x	-16%	u	u	-2%	-9%	-1%	1%
49	CC(NC(=O)C1CCN(C(=O)c2ccc(-n3ccc4ccccc43)s2)CC1)c1ccccc1 (stereo not given)	-8%	15%	24%	3%	5%	-15%	x	-7%
50	Cc1nc2nc(SCC(=O)O)nn2c(C)c1Cc1c(F)cccc1Cl	10%&-2%	-3%&2%	12%&16%	u	-7%	-7%&-17%	1%	-5%&1%
51	CCc1cccc(C)c1NC(=O)c1cc(S(=O)(=O)N(C)Cc2ccccc2)ccc1F	3%	26%	8%	0%	-9%[60.1 µM]	-22%	x	-15%
52	CCOC(=O)N1CCN(C(=O)Nc2ccc3nc(C)c(C)nc3c2)CC1	-1%	91%[activator]	27%	35%	0%	-5%	0%	-15%
53	CCc1cccc(C)c1NC(=O)CSc1nc2ccccc2nc1Cc1ccccc1	18%	26%	18%	-24%	-4%[60.1 µM]	-9%	x	-1%
54	Cc1nn(-c2ccccc2)c2nc(C3CC3)cc(C(=O)Nc3cccc(F)c3)c12	6%	85%[activator]	-17%	1%	1%	-23%	x	-9%
55	CCc1cc(-c2n[nH]c(C)c2-c2nc(C)cs2)c(O)cc1OC	9%	-10%	56%[activator]	u	-3%	-13%	-5%	-3%
56	O=C(CSc1nnc2ccc(-c3ccccc3)nn12)NCC1CCCO1 (stereo not given)	-8%	-12%	10%	-21%	-18%	-5%	-3%	1%
57	O=C(Cc1n[nH]c(=O)c2ccccc12)OCC(=O)c1ccc2c(c1)OCCO2	0%	u	8%	-7%	-21%	3%	2%	-6%
58	CSc1ccccc1OCc1cc(C(=O)N2CCN(c3ncccn3)CC2)no1	-8%	-13%	7%	-13%	-33%	-21%	-26%	-21%
59	Cc1ccc(C(=O)C2=C(O)C(=O)N(c3ncccn3)C2c2ccc(F)cc2)o1 (stereo not given)	-10%	-6%	36%[activator]	22%	0%	-9%	u	-3%
60	CC(C)Oc1ccc(CNC(=O)c2ccc3c(c2)N(C)CCS3)cc1	-4%	729%[activator]	-29%	-10%	-10%	-12%	48%[activator]	-8%
